# Screening results as filed in PubChem BioAssay.
# Cruzain inh noDet: qHTS Assay for Promiscuous and Specific Inhibitors of Cruzain (without detergent); Potency, µM, for inactives: max response, negative = inhibition, usual class: inhibitors; AID 1476, 2009; 200,000 tested, 2.3% active; Cruzipain (Trypanosoma cruzi), P25779; purified cruzain, Z-FR-AMC fluorescence, no detergent;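 also: plate controls were enzyme without inhibitor for no effect and buffer without enzyme for full effect; nearly all actives have a fitted effect of over 40% in size; top concentration of the series not given in the record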
# Target sequence (P25779 123-467 limits assumed): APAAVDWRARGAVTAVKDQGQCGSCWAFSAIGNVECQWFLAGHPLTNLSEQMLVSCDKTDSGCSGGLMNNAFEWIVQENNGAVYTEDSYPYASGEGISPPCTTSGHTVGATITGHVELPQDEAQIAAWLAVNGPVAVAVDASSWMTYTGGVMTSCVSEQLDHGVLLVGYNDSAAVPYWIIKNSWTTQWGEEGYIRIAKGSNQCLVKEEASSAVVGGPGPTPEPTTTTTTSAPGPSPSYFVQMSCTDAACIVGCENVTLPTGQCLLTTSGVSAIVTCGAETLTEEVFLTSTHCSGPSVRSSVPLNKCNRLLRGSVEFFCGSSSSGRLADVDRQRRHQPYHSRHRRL
#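 Purified cruzain at 1.5 nM, pre-incubated 15 min with compound at room temperature in 100 mM sodium acetate pH 5.5, 5 mM DTT, 0.00005% Triton X-100. Reaction started with 2 uM Z-FR-AMC; AMC fluorescence increase over 60 s gives rate.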
# StopGo reporter: High Throughput Screening for Foot and Mouth Disease Virus Antivirals; human cells with a luciferase reporter of 2A StopGo recoding; control for the full effect not named in the record; Potency, µM (titrated, usually from 57.9 µM), inactives show at the top dose signal change, negative = less light; 410,000 tested, 1.2% active; active = well fitted falling curve with a large enough effect; inconclusive = small, poorly fitted or top-dose-only effect; inactive = no such curve, though single readings can be large or run the other way; tested in HEK293T cells; also: % is scaled to controls: 0 for no effect and ±100 for the full control effect; nearly all actives have a fitted effect of over 45% in size; luciferase light after 4 h
# SARS PLpro yeast: qHTS of Yeast-based Assay for SARS-CoV PLP. 330,000 tested, 0.19% active. S. cerevisiae expressing SARS-CoV PLpro, growth rescue; control for the full effect not named in the record. Potency, µM (highest dose often 32.9 µM), for inactives: top-dose activity, positive = growth rescue; active means well fitted rising curve with a large enough effect; inconclusive means small, poorly fitted or top-dose-only effect; inactive means no such curve, though single readings can be large or run the other way; also: 0% is about no effect; nearly all actives have a fitted effect of over 55% in size; growth read by luminescence after 48 h
# Cruzain inh Det: qHTS Assay for Promiscuous and Specific Inhibitors of Cruzain (with detergent); Cruzipain (Trypanosoma cruzi), P25779; purified cruzain, Z-FR-AMC fluorescence, 0.01% Triton; Potency, µM, for the others: max response, negative = inhibition, most hits filed as inhibitors; 200,000 tested, 0.43% active;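 also: plate controls were neutral wells for no effect and buffer without enzyme for full effect; nearly all actives have a fitted effect of over 40% in size; top concentration of the series not given in the record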
#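 Sodium acetate buffer (100 mM, pH 5.5) containing 5 mM DTT and 0.01% Triton X-100 hosted 1.5 nM cruzain and test compound for 15 min at room temperature. Cleavage of 2 uM Z-FR-AMC was then tracked by fluorescence.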
# NS1 function inh: qHTS Assay for Inhibitors of Influenza NS1 Protein Function; S. cerevisiae slowed by influenza A NS1, growth recovery by OD600; Potency, µM (titrated, usually from 46.1 µM), inactives show at the top dose activity, positive = more growth; 270,000 tested, 0.4% active; AID 2326, 2010; active means well fitted rising curve with a large enough effect; inconclusive means small, poorly fitted or top-dose-only effect; inactive means no such curve, though single readings can be large or run the other way; also: nearly all actives have a fitted effect of over 50% in size
#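 Recovery from NS1-induced slow growth read by OD600 in budding yeast switched to galactose assay medium (pH 6.0, -URA) at 1:100 dilution. Compound 23 nl per well; the matching strain lacking NS1 serves as control.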
# Lassa entry inh: qHTS for Inhibitors of binding or entry into cells for Lassa Virus. Lassa virus pseudotype entry inhibition, cell reporter; control for the full effect not named in the record. Potency, µM (series often up to 37.9 µM), without a hit: at the highest dose activity change, negative = inhibition, hits mostly inhibitors. 300,000 tested, 1.2% active. AID 540256, 2011; active means well fitted inhibition curve with a large enough effect; inconclusive means small, poorly fitted or top-dose-only effect, or effect the other way; inactive means flat fitted curve, though single readings scatter; tested in HEK293 cells; also: % is scaled to controls: 0 for no effect and ±100 for the full control effect; nearly all actives have a fitted effect of over 50% in size; luciferase read-out
# MARV entry inh: qHTS for inhibitors of binding or entry into cells for Marburg Virus; 300,000 tested, 1.8% active; Marburg virus pseudotyped entry inhibition, cell reporter; control for the full effect not named in the record; about a third of the inactives were read at about 46 µM; Potency, µM (doses to about 37.8 µM), for inactives: top-dose activity change, negative = inhibition, actives largely listed as inhibitors; active = well fitted inhibition curve with a large enough effect; inconclusive = small, poorly fitted or top-dose-only effect, or effect the other way; inactive = flat fitted curve, though single readings scatter; tested in HEK293 cells; about a fifth of its hits are not listed in these tables; also: % is scaled to controls: 0 for no effect and ±100 for the full control effect; luciferase read-out
# RE007 growth inh: qHTS Assay for Inhibitors of the HIV-1 protein Vpr; S. pombe RE007 Vpr strain, BacTiter-Glo ATP luminescence, 24 h; control for the full effect not named in the record; Potency, µM (doses to about 92.2 µM), inactives show at the top dose activity change, negative = less growth; 360,000 tested, 0.21% active; AID 651644, 2012; active = well fitted falling curve with a large enough effect; inconclusive = small, poorly fitted or top-dose-only effect; inactive = no such curve, though single readings can be large or run the other way;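 also: % is scaled to controls: 0 for no effect and ±100 for the full control effect; nearly all actives have a fitted effect of over 50% in size; the assay follows cell death caused by Vpr and the record does not say whether a fall means rescue or toxicity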
#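 Fission yeast RE007 carrying one integrated HIV-1 vpr copy, seeded at OD 0.01 in PMG+AL medium with 23 nL pinned compound. Grown 24 h at 30 degrees; viability read by BacTiter-Glo luminescence after 5 min.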
# An asterisk follows results filed as active; ? = inconclusive; . = not tested or not shown; [ ] = remark or other dose. Unless noted, calls follow the shape of the dose curve; as a rule, active = well fitted curve in the direction sought with a large enough effect; inconclusive = small, poorly fitted or top-dose-only effect, or another doubt; inactive = no such curve, though single readings can be large; an effect the other way counts as inactive or inconclusive. Potency is read from the fitted curve at half-maximal effect.
SMILES,Cruzain inh noDet,StopGo reporter,SARS PLpro yeast,Cruzain inh Det,NS1 function inh,Lassa entry inh,MARV entry inh,RE007 growth inh
CC(=O)c1ccc(NC(=O)CCc2c(C)nn(-c3ccc4nncn4n3)c2C)cc1,-9%,-14%,.,-0.8%,.,?,.,.
COc1ccc(OC)c(Cc2nnc(CCC(=O)N3CCCCC3)o2)c1,.,93%[activator],-1%,.,-5%,14%,?,8%
O=C1NC(=Nc2ccc(F)cc2)SC1Cc1ccc(F)cc1 (stereo not drawn),.,0%,1%,.,3%,-13%[46.1 µM],28%[46.1 µM],-11%
COc1cccc(NC(=O)c2oc3ccc(S(=O)(=O)N4CCCCCC4)cc3c2C)c1,3%,-21%,.,-0.2%,.,-10%[46.1 µM],.,.
CCN(CC)CC(=O)N1CCCC(C(=O)c2ccccc2OC)C1 (stereo not drawn),.,33%[activator],-1%,.,4%,.,.,-5%
CCCCS(=O)(=O)c1sc2nc(C)cc(C)c2c1N,-1%,.,-5%,-5.4%,-3%,5%,3%,5%
Cc1nc(-c2ccccn2)sc1C(=O)Nc1ccc(Cl)c(Cl)c1,13%,6%,-4%,-3.3%,-2%,4%,11%,17%
COC(=O)c1c(F)c(F)c(NCCO)c(F)c1F,-5%,.,3%,1.5%,-4%,-2%,-1%,12%
COc1cc(NC(=O)Cn2cnc3sc(C)c(S(=O)(=O)N4CCC(C)CC4)c3c2=O)cc(OC)c1OC,21%,-14%,.,-0.5%,.,13%[46.1 µM],0%[46.1 µM],.
Cc1cn2c(=O)cc(COC(=O)c3cccc(NC(=O)COc4ccccc4)c3)nc2s1,11%,-13%,.,1.4%,.,11%[46.1 µM],.,.
CCOc1cc(/C=N/N=C(N)N)ccc1OCc1ccc(Cl)cc1,-10%,-21%,14%,-7.1%,5%,?,?,15%
O=[N+]([O-])c1ccccc1CNC1CCCCCC1,.,16%,0%,.,-3%,.,.,-4%
CC1(c2nnc(-c3ccccc3)o2)CC(c2cccc(Cl)c2)=NO1 (stereo not drawn),.,0%,-6%,.,-4%,.,.,5%
CN=c1scc(C)n1/N=C/c1ccc2c(c1)OCO2,-14%,-64%,-7%,-1.1%,-4%,3.5µM*,?,?
CCN(c1ccccc1)c1nc(C#N)nc(N(CC)c2ccccc2)n1,.,?,-6%,.,-42%,.,.,-1%
COc1cc2c(C(=O)O)c(C)n(C)c2cc1Br,.,-4%,-1%,.,10%,6%[46.1 µM],-6%[46.1 µM],4%
CCN(Cc1ccccc1)C(=O)CCS(=O)(=O)c1ccc2c(c1)NC(=O)CO2,.,0%,3%,.,9%,13%[46.1 µM],13%[46.1 µM],7%
CC1Cc2cc(/C(O)=C3/C(=O)C(=O)N(Cc4ccco4)C3c3cccs3)ccc2O1 (stereo not drawn),-13%,9%,0%,-5.4%,6%,2%,1%,13%
CC(C)CNc1nc(N)c([N+](=O)[O-])c(NC2CCCCC2)n1,.,-8%,3%,.,1%,.,.,-2%
O=C(NCCCN1CCOCC1)c1sc2cc([N+](=O)[O-])ccc2c1Cl,.,-8%,-1%,.,.,?,?,0%
Cc1c(/C=N/NC(=O)c2cccs2)c2ccccc2n1Cc1ccccc1Cl,.,8%,1%,.,0%,4.1µM*,2.9µM*,12%
CC1CC(=O)Nc2ccccc2N1S(=O)(=O)c1ccc(Br)cc1 (stereo not drawn),1%,-5%,1%,1.0%,2%,-25%,15%,1%
O=P(O)(CCc1ccccn1)CN1CCOCC1,-12%,21%,1%,0.3%,2%,4%,2%,6%
CCOC(=O)CSc1nc2ccccc2c(=O)n1CC(C)C,.,?,-1%,.,-6%,-3%,?,7%
Cc1ccc(S(=O)(=O)N2CCC(C(=O)OCC(=O)N(CCC#N)c3ccc(F)cc3)CC2)cc1C,.,-6%,-6%,.,.,-21%,17%,-2%
CC1CN(C(=O)c2ccc(OC3CCN(Cc4ccccn4)CC3)cc2)CCN1C (stereo not drawn),.,-18%,3%,.,-5%,18%,19%,-9%
COc1ccc2[nH]c(=O)c(CN(CCc3ccccc3)C(C)=O)cc2c1,6%,-8%,-8%,1.1%,2%,0%,6%,15%
CCN(CC)CCNc1c2c(c(C#N)c3nc4ccccc4n13)CCCC2,-9%,0%,-33%,-0.6%,-12%,5%,-7%,1%
Cc1cc(NC(=O)CSc2nc3ccccc3c(=O)n2-c2ccccc2)no1,-11%,-3%,7%,11%,-3%,2%,?,-5%
Cc1cccc(OCCC(=O)Nc2cc(S(=O)(=O)N3CCCCC3)ccc2N2CCOCC2)c1,.,-1%,-2%,.,-17%,?,-19%[14.2 µM],1%
NC(=NCc1ccc(Cl)c(Cl)c1)NC(=O)c1nc(Cl)c(N)nc1N,?,.,.,-16%,-1%,.,2.5µM*,.
COC(=O)c1ccc(Oc2coc3cc(OCc4cnn(-c5ccccc5)c4)ccc3c2=O)cc1,?,-26%,-1%,-21%,4%,1%,6%[46.1 µM],23%
CCOC(=O)c1cc(S(=O)(=O)N2CCCC2)cn1C,.,-19%,-6%,.,1%,.,.,1%
Cc1ccccc1Nc1c(-c2ccncc2)nc2ccc(Br)cn12,-9%,?,-3%,-8.8%,-32%,-18%,?,20%
Cc1cccc(C)c1NC(=O)CN1CCN(CCCC(c2ccc(F)cc2)c2ccc(F)cc2)CC1,-7%,0%,.,-1.5%,.,.,.,10%[18.4 µM]
O=C(Cc1n[nH]c(=O)[nH]c1=O)N/N=C/CCc1ccccc1,.,-13%,1%,.,2%,.,.,-1%
Cc1ccc2cc(CN(Cc3nnnn3C3CCCCC3)CC3CCCO3)c(=O)[nH]c2c1 (stereo not drawn),22%,3%,1%,-6.6%,-31%,-20%,?,-8%
Cc1nn(C(=O)c2cccc([N+](=O)[O-])c2C)c(C)c1S(=O)(=O)N1CCOCC1,2%,?,.,-1.3%,.,20%[46.1 µM],.,.
CCOc1ccc(NC(=O)C(=O)NCCc2csc(-c3ccc(C)cc3)n2)cc1,9%,5%,.,2.1%,.,-8%[46.1 µM],.,.
CC(NC(N)=O)C(=O)Nc1ccc(Cl)c(S(=O)(=O)Nc2ccc(Cl)cc2)c1 (stereo not drawn),.,46%[activator],1%,.,-5%,.,.,2%
CCCn1c2c(c(O)c(C(=O)Nc3ncccc3O)c1=O)CCCC2,-5%,-11%,20%,-2.7%,-54%,0%,13%,-3%
CCc1ccc(CN(C)C(C)C(=O)NCc2ccccc2)cc1 (stereo not drawn),.,-28%,1%,.,1%,?,3%[46.1 µM],5%
Cc1cc(C)c(S(=O)(=O)Nc2ccc3oc4c(c3c2)CCCC4)cc1C,?,37%[activator],.,-5.2%,.,10%[46.1 µM],?,.
CCN1C(=O)N(c2ccc(Cl)cc2)C(C)=CC1(C)C,3%,-25%,-1%,6.8%,11%,-12%,14%,10%
Cc1ccccc1NC1=C/C(=N\S(=O)(=O)c2ccc(C(=O)O)cc2)c2ccccc2C1=O,.,?,-5%,.,-5%,?,8.9µM*,?
[O-]/C(=C(\C(=S)NCc1ccccc1)[n+]1ccccc1)c1ccc(Cl)s1,.,28%,2%,.,.,9%,-16%[46.1 µM],10%
Cc1cc2nc(C)c(Cl)c(=O)n2[nH]1,.,5%,0%,.,.,2%,16%[46.1 µM],-8%
O=C(CCN=C1NS(=O)(=O)c2ccccc21)OCC(=O)c1ccccc1,.,9%,-2%,.,.,16%,-6%,-20%
CN(Cc1ccccc1)Cc1nc2c(c(=O)n(C)c(=O)n2C)n1Cc1ccccc1Cl,?,0%,5%,-1.3%,-83%,?,?,-3%
O=C(COC(=O)c1ccc2c(c1)S(=O)(=O)N=C1CCCCCN12)NCCc1ccc(F)cc1,.,-4%,3%,.,-2%,.,.,-10%
CC1CCCCN1Cc1cnc(Cl)s1 (stereo not drawn),-1%,-20%,1%,6.4%,2%,15%,20%,-4%
O=C(Cn1cc(C(=O)c2ccco2)c2ccccc21)NC1CCCC1,2%,-9%,10%,-2.4%,-7%,0%,-8%,-2%
O=c1[nH]c(/C=C/c2ccccc2[N+](=O)[O-])nc2ccccc12,0%,5%,1%,-3.6%,-5%,1%,?,-24%
CCC(C)N(C(=O)CSc1nnc(-c2cccs2)n1C1CC1)C1CCS(=O)(=O)C1 (stereo not drawn),.,-10%,-4%,.,.,?,23%,-3%
O=C(NCC(c1ccco1)N1CCN(c2ccccc2F)CC1)C1CCCCC1 (stereo not drawn),.,-23%,-2%,.,.,-35%,?,-5%
CCOc1ccc(N2C(=O)CS/C2=N/NC(=O)COc2ccc3ccccc3c2)cc1,?,.,-1%,-3.2%,7%,-5%,-5%,-6%
COC(=O)C1=C(C)NC(=O)C1(NS(=O)(=O)c1ccc(C)cc1)C(F)(F)F (stereo not drawn),9%,-17%,2%,4.5%,3%,9%,?,-14%
CNC(=O)c1cc(C)c(-c2ccccc2)s1,-8%,50%[activator],-37%,-9.8%,-59%,17%,-2%,-8%
Cc1ccc(S(=O)(=O)N(C)/N=C2/C(=O)N(CC(=O)O)c3ccccc32)cc1,.,5%,1%,.,1%,10%,?,-12%
O=C(/C=C/c1ccccc1)NC(NC(=S)Nc1cccc(O)c1)C(Cl)(Cl)Cl (stereo not drawn),-11%,?,18%,-25%,4%,?,?,1%
CC(C)CC(NS(=O)(=O)c1ccc2c(c1)oc(=O)n2C)C(=O)NCCc1ccc(Cl)cc1 (stereo not drawn),-23%,4%,.,-0.9%,.,2%[46.1 µM],4%[46.1 µM],.
O=C(NCc1cccc(Cl)c1)c1c2c(nc3ccccc13)C(=O)N(C1CCCCC1)C2,3%,-25%,.,-0.2%,.,-11%[46.1 µM],.,.
CC1=C(C(=O)Nc2ccccc2)C2(CCCCC2)C(C#N)=C(SCC(N)=O)N1,8%,-10%,9%,-0.3%,-5%,-7%,0%,-7%
